TRPML1 ag: activates the human TRPML1 channel; activation, % (concentration not given with the values); AID 624414; TRPML1-expressing cells, Ca2+ dye fluorescence, FDSS; host cell line not named in the record; reference of the full effect not given here; hit rate 0.12% among 410,000; in the data active = activation above about 50%; inconclusive = about 30% to 50%; inactive = below about 30%; note: 0% is about no effect; the text of the record puts the active cut at 80%
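Calcium fluorescence on an FDSS kinetic reader gave the read-out. Tet-induced TRPML1-DL cells were plated overnight, dye-loaded (Ca8 with quencher, 45-90 min, room temperature, dark), then read 110 s after compound addition, and again 110 s after 4uM final 54-4 (EC80).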
D2 PAM: potentiates the human D2 dopamine receptor allosterically; P14416; DiscoveRx D2 beta-arrestin cells, luminescence, 90 min; 100% = 57 uM dopamine signal; potentiation, % (no concentration beside the values); hit rate 0.23% among 360,000; AID 624464; active = potentiation of 50% or more; inconclusive = 30% to 50%; inactive = 30% or less;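 note: compound concentration not given in the record; tested on top of an EC20 dose of dopamine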
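D2 cells co-treated with compound plus 50 nM dopamine (EC20) for 90 min at 37 deg C to detect potentiation. Beta-arrestin recruitment was read as enzyme-fragment luminescence after 1 h at ambient temperature. Full response was set by 57 uM dopamine.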
Six1-Eya2 inh: Six1/Eya2 interaction inhibition. Q15475+O00167. AlphaScreen GST-Six1/His-Eya2 binding, biochemical; stronger effect = lower value; control for the full effect not named in the record. activity change, % (concentration not given with the values). hit rate 0.56% among 360,000. AID 651725; in the data active = activity change below about -65%; inconclusive = about -30% to -65%; inactive = above about -30%; note: % is set by controls: 0 for no effect and ±100 for the full control effect
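AlphaScreen with GST-Six1 and His-Eya2 (5X mix: 250 nM and 500 nM), glutathione donor and nickel acceptor beads; buffer 50 mM Tris pH 8.0, 300 mM NaCl, 1 mM TCEP; 1 h at 37 C in the dark.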
TRPV1 potentiator: potentiators of human vanilloid receptor 1 (TRPV1); Q8NER1; AID 540277; TRPV1-expressing cells, Fluo-8 calcium influx, capsaicin EC20 potentiation; host cell line not named in the record; control for the full effect not named in the record; potentiation, % at 8.33 µM; hit rate 0.02% among 320,000; active means potentiation above 80%; inconclusive means 30% to 80%; inactive means below 30%; note: 0% is about no effect
Target sequence (Q8NER1 whole entry, looked up): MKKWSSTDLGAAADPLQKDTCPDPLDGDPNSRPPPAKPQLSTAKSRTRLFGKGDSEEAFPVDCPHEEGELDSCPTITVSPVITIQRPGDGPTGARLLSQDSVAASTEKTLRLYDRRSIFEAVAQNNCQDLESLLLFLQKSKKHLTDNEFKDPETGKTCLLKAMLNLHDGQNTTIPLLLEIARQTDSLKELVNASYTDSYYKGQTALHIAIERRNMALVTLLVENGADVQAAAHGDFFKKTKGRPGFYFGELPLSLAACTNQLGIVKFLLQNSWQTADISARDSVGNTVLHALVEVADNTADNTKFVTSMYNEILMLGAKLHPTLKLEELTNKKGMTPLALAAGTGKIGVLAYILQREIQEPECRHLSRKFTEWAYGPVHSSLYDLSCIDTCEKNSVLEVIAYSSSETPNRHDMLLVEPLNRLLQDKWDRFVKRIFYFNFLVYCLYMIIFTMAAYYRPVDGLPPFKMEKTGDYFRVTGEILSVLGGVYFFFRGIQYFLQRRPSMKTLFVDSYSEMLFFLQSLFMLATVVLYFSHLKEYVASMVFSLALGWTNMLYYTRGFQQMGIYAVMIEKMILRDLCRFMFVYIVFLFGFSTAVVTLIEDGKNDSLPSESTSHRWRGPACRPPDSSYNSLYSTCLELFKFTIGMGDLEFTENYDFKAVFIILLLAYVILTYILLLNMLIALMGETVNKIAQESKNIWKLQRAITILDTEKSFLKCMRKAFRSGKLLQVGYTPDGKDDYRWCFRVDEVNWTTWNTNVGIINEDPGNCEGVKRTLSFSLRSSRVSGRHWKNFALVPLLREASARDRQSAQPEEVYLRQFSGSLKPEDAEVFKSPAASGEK
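Fluo-8 calcium influx in TRPV1-expressing cells, kinetic read (ex 480/em 520 nm). Compound added and read 3 min for agonist activity, followed by capsaicin at EC20 final and 2 min further read for enhancement.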
CtBP-E1A blk: inhibitors of CtBP/E1A interaction | AlphaScreen GST-E1A/His-CtBP binding, 1536-well; stronger effect = lower value; control for the full effect not named in the record | activity change, % (concentration not given with the values) | hit rate 0.49% among 340,000 | AID 651724; in the data active means activity change below about -65%; inconclusive means about -30% to -65%; inactive means above about -30%; note: % is set by controls: 0 for no effect and ±100 for the full control effect
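Homogeneous bead-based format: GST-tagged E1A captured on glutathione donor beads, His-tagged CtBP on nickel acceptor beads; compounds precede bead addition by 2 h at 37 °C.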
TRPML1 blocker: blocks the human TRPML1 channel; Q9GZU1; TRPML1-inducible cells, Ca2+ dye fluorescence, FDSS; stronger effect = lower value; inhibition of EC80 agonist-evoked calcium signal; activity change, negative = inhibition, % (no concentration beside the values); hit rate 0.02% among 390,000; AID 624415; in the data active means activity change below about -50%; inconclusive means about -30% to -50%; inactive means above about -30%;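 note: stimulus is agonist 54-4 at its EC80 concentration; % is set by controls: 0 for no effect and ±100 for the full control effect; compound concentration not given in the record; the text of the record puts the active cut at -80%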
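TRPML1-DL cells, Tet-induced overnight (~16 h, 37 °C) at 1,500 cells/well, were loaded with Ca8 no-wash dye plus quencher for 45-90 min at room temperature. Compounds were pinned during FDSS kinetic reading; agonist 54-4 at EC80 (4 uM final) then added.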
Starred values were filed as active, the others as inactive; ? = inconclusive; / = not tested or not shown; & = joins results of further samples.

Results follow in this order: TRPML1 ag, D2 PAM, Six1-Eya2 inh, TRPV1 potentiator, CtBP-E1A blk, TRPML1 blocker
CCOc1ccc(CCNC(=O)c2ccc(NC3=NC4CS(=O)(=O)CC4S3)cc2)cc1 (stereo unspecified)
  0.8, -9.2, -0.6, -5.9, 3.2, -6.9
CC1=C(C(=O)OCc2ccccc2)N2C(=O)[C@@H](NC(=O)COc3ccccc3)[C@H]2SC1
  -0.4&-0.3, -3.8, -14.9, -5.3, -1.1, -11.1
CCCCC1CC2=C(C(=O)OC(C)(C)O2)C(c2ccc3ccccc3c2)O1 (stereo unspecified)
  -0.4, 0.0, 1.1, /, 3.2, 3.9
Cc1cc(C)c(-c2csc(NC(=O)C3=NN(c4ccccc4)C(=O)CC3)n2)c(C)c1
  -0.5, -2.7, -1.8, 7.7, /, -3.8
CN(C)C(CNC(=O)c1ccc2c(=O)n(-c3ccccc3F)c(=S)[nH]c2c1)Cc1ccccc1 (stereo unspecified)
  -0.3, -13.3, -1.6, -2.4, 0.5, 2.8
Cc1cc(C)n(/N=C/c2ccccc2)c(=O)c1C#N
  0.0, -2.5, 3.6, 2.8, 4.8, -1.6
O=C(Nc1ccc(N2CCN(Cc3ccccc3F)CC2)cc1)c1ccc([N+](=O)[O-])o1
  -0.7, ?, -8.1, -17.0, 22.8, -1.5
COc1ccc(-c2c(-c3ccccc3OC)sc3ccccc23)cc1OC
  1.5, 0.8, -5.6, 19.2, -7.2, 28.5
O=C(O)C(Cc1ccccc1)N1C(=O)c2ccccc2C1=O (stereo unspecified)
  -0.4, 4.5, 6.3, 11.1, 2.5, 11.0
Cc1cc(NS(=O)(=O)c2ccc(NC(=O)c3ccc(Cl)nc3)cc2)nc(C)n1
  0.1, -15.6, 4.3, /, -8.3, -15.1
N#Cc1ccccc1S(=O)(=O)N1CCN(Cc2c(O)ccc3ccccc23)CC1
  0.1, 0.9, -1.9, 0.4, 2.1, 36.6
C[C@@H]1CN([C@H](C)CO)C(=O)c2c(c3ccccc3n2C)-c2ccccc2CO[C@H]1CN(C)S(=O)(=O)c1cn(C)cn1
  -0.7, -0.2, 7.8, /, 6.5, 1.3
Cc1nc(N)c(C#N)c(-c2ccccc2Cl)c1C
  -0.3, -24.2, 3.8, 3.0, -0.3, 13.0
CCOC(=O)c1c(C)oc2ccc(O)c(CN(C)C)c12
  1.8, 8.7, 3.2, 2.8, 11.9, -7.9
O=C(Nc1ccccc1C(=O)N1CCN(CCO)CC1)c1cccc([N+](=O)[O-])c1
  0.5, 5.4, 10.0, 5.3, -3.7, 7.4
COc1ccc(NC(=O)N2CCCC(C(=O)NC(C)C)C2)cc1 (stereo unspecified)
  0.6, 4.4, -0.3, 0.3, 1.7, -1.1
O=C(NCc1cc(C(F)(F)F)ccc1F)C1CCC(=O)N(C2CCCCCC2)C1 (stereo unspecified)
  -1.1, -8.8, 2.2, 7.3, 1.6, -8.7
Cn1ncc(-c2ccno2)c1C(=O)O
  0.2, 1.4, 0.0, 1.6, 12.4, 4.9
Cc1ccc(/C(O)=C2/C(=O)C(=O)N(Cc3ccco3)C2c2cccs2)cc1 (stereo unspecified)
  -0.3, -18.6, -2.9, 15.2, -0.5, 3.5
Cc1ccc(CN2C(=O)CCC2C(=O)NCc2cccnc2)cc1 (stereo unspecified)
  -0.3, -6.1, 1.1, 4.7, -4.1, -2.3

Some of the entries so far, tab-delimited.
Compound	TRPML1 ag	D2 PAM	Six1-Eya2 inh	TRPV1 potentiator	CtBP-E1A blk	TRPML1 blocker
C[C@@H]1CN([C@H](C)CO)C(=O)c2c(c3ccccc3n2C)-c2ccccc2CO[C@H]1CN(C)S(=O)(=O)c1cn(C)cn1	-0.7	-0.2	7.8	/	6.5	1.3
Cc1nc(N)c(C#N)c(-c2ccccc2Cl)c1C	-0.3	-24.2	3.8	3.0	-0.3	13.0
CCOC(=O)c1c(C)oc2ccc(O)c(CN(C)C)c12	1.8	8.7	3.2	2.8	11.9	-7.9
O=C(Nc1ccccc1C(=O)N1CCN(CCO)CC1)c1cccc([N+](=O)[O-])c1	0.5	5.4	10.0	5.3	-3.7	7.4
COc1ccc(NC(=O)N2CCCC(C(=O)NC(C)C)C2)cc1 (stereo unspecified)	0.6	4.4	-0.3	0.3	1.7	-1.1
O=C(NCc1cc(C(F)(F)F)ccc1F)C1CCC(=O)N(C2CCCCCC2)C1 (stereo unspecified)	-1.1	-8.8	2.2	7.3	1.6	-8.7
Cn1ncc(-c2ccno2)c1C(=O)O	0.2	1.4	0.0	1.6	12.4	4.9
Cc1ccc(/C(O)=C2/C(=O)C(=O)N(Cc3ccco3)C2c2cccs2)cc1 (stereo unspecified)	-0.3	-18.6	-2.9	15.2	-0.5	3.5
Cc1ccc(CN2C(=O)CCC2C(=O)NCc2cccnc2)cc1 (stereo unspecified)	-0.3	-6.1	1.1	4.7	-4.1	-2.3

Carrying on.
Results follow in this order: TRPML1 ag, D2 PAM, Six1-Eya2 inh, TRPV1 potentiator, CtBP-E1A blk, TRPML1 blocker
O=C(Nc1ccc(F)cc1)c1nc2c(nnn2Cc2cccc3ccccc23)c(=O)[nH]1
  -0.6, 8.1, -1.8, 21.6, -10.3, -12.7
COc1ccc(OC)c(NC(=O)CN(Cc2ccc(F)cc2)C2CCCCC2)c1
  0.1, -5.6, -28.0, -5.2, -13.0, 16.6
CCn1c(Cc2ccccc2)nnc1SCC(=O)Nc1ccccc1O
  2.1, 2.1, -5.3, 8.9, -7.7, -18.5
Cc1ccc(S(=O)(=O)Nc2cc(=O)[nH]c(SCc3ccc(Cl)cc3)n2)cc1
  2.3, 6.8, -1.7, -12.7, 0.7, -18.2
CC(Nc1nc(-c2ccc(F)cc2)cs1)c1nc2cc(Cl)c(Cl)cc2n1CCOCCO (stereo unspecified)
  0.0, -6.8, 1.8, /, -19.3, 47.3
Cn1c(=O)c(C(=O)c2ccccc2)nc2ccccc21
  -0.3, -28.3, -1.7, 13.5, 5.5, -16.8
Cc1ncc(N=Nc2ccc(F)cc2)c(-c2ccc(Cl)cc2)n1
  1.2, -15.3, -11.0, -1.4, -4.2, 12.8
CC(C)COC(=O)c1ccccc1N1C(=O)C2C3CCC(C3)C2C1=O (stereo unspecified)
  -0.6, -15.8, 5.5, 0.3, 0.1, 9.3
CC(C)c1ccc(S(=O)(=O)N(C)C2(C)CCS(=O)(=O)C2)cc1 (stereo unspecified)
  0.3, -11.6, -3.3, -9.7, 9.2, -10.6
O=C(CCNC(=O)c1ccccc1)NN=Cc1ccc(Br)o1
  0.6, -6.8, -7.2, /, -15.0, 2.4
CCOC(=O)Cc1csc(NC(=O)C2CCCN(S(=O)(=O)c3cnc[nH]3)C2)n1 (stereo unspecified)
  -0.2, -10.8, -0.9, 14.9, 1.4, 1.7
Cc1ccc(NC(=O)c2cc(S(=O)(=O)c3ccccc3)ccc2Cl)cc1
  2.6, 0.0, 3.0, -10.6, -2.9, 20.1
NC(=O)c1ccsc1NC(=O)COC(=O)CCCOc1ccccc1
  -0.1, ?, 3.2, 3.7, 17.7, -9.2
O=c1c2ccccc2nc2n1C(CSc1ccccc1)CS2 (stereo unspecified)
  -0.1, -12.0, 3.0, 0.8, 0.0, 0.4
CN(C)c1ccc(CC(=O)N2CCCCC2c2cc(C(=O)Nc3cccc4c3CCCC4)no2)cc1 (stereo unspecified)
  -0.8, -3.4, ?, /, ?, /
COc1ccc2c(c1)cc(C(O)c1ccccn1)n2S(=O)(=O)c1ccccc1 (stereo unspecified)
  0.7, -17.6, -5.1, -6.6, 2.7, -13.9
Cc1cc(C)n(-c2ccc(C(=O)Nc3cc(S(=O)(=O)N(C)C)ccc3Cl)cc2)n1
  0.0, -9.1, -13.9, 9.6, -21.8, -15.2
C/C=C/C(=O)OCC(=O)Nc1ccc(C)c(S(=O)(=O)N(C)C)c1
  -0.3, -7.0, 0.5, 4.7, 0.8, 10.1
C=CCn1c(C)cc(C(=O)Cn2c(C(C)O)nc3ccccc32)c1C (stereo unspecified)
  -0.2, -2.0, -5.6, -26.9, -17.1, -14.3
CCOc1ccc(S(=O)(=O)Nc2ccc(S(=O)(=O)N3CCOCC3)cc2)cc1
  -0.6, -5.5, 5.8, -4.1, 8.7, -12.2
O=C(NC1CCCCCCC1)c1c(O)c2ccccc2[nH]c1=O
  0.1, 3.0, 0.6, ?, 8.1, 3.2
COCC(C)n1c(C)cc(C(=O)CSc2nnc(-c3ccco3)o2)c1C (stereo unspecified)
  -0.7, -5.7, -6.0, /, -11.7, 1.0
O=C(N/N=C/c1ccc2c(c1)OCO2)C(=O)Nc1cccc(Cl)c1
  0.3, -5.8, 28.3, 7.2, -0.7, 36.7
COc1ccc(N2CCN(C(=O)CNC(=O)Cn3c(C)cc4ccccc4c3=O)CC2)cc1
  -0.3, -1.1, 0.3, -5.5, -2.0, 3.5
CCOC(=O)c1cc(C)[nH]c(=S)c1C#N
  -0.6, -10.0, -5.1, 0.1, 0.1, -10.4
O=C(NNc1nc(-c2ccccc2)c2cc(Br)ccc2n1)c1ccc(S(=O)(=O)N2CCOCC2)cc1
  0.9, -4.1, 9.0, 6.7, 6.4, 2.6
FC(F)(F)c1cc(-c2cccs2)nc2nc(N3CCOCC3)sc12
  -0.3, 3.5, -1.7, -4.2, 6.3, 8.6
COc1cc(NC(=O)C2CC(=O)N(CCc3ccccc3)C2)cc(OC)c1 (stereo unspecified)
  -0.4, -4.6, -7.1, -27.8, -13.3, 11.3
CCOc1ccc(Oc2ccccc2NS(=O)(=O)c2ccc(CCC(=O)O)cc2)cc1
  -0.1, -1.1, -1.4, 5.1, 0.9, 15.4
O=C(CC(=O)N/N=C/c1c(F)cccc1Cl)NCCc1ccccc1
  -0.3, -26.6, -2.4, 4.7, /, 11.7
O=C(O)c1ccccc1C(=O)c1ccc2c(c1)CCC2
  0.1, 0.0, 13.0, 15.4, -22.0, -2.1
Clc1ccc2nc(-c3ccccc3)cn2c1
  0.8, -1.2, 1.5, 0.5, 1.6, -3.9
COc1ccccc1C(=O)NCCC(=O)Nc1ccc(S(=O)(=O)N2CC(C)CC(C)C2)cc1 (stereo unspecified)
  0.1, -5.7, -10.7, ?, 1.4, 2.4
CCCN(Cc1nnc(-c2cccs2)o1)C(=O)CN1C(=O)NC2(CCCCC2)C1=O
  0.1, -1.0, -1.1, ?, -19.1, -9.9
Cc1cccc(/C=N/Nc2nncc3ccccc23)c1
  2.8, -7.2, -11.6, -2.7, -17.8, 9.1
Fc1ccc(NC(=S)N2CCOCC2)c(F)c1
  0.2, -20.8, 0.4, -4.3, 3.2, -9.9
CN(C)c1ccc(/C=C(\NC(=O)c2ccccc2)C(=O)NCc2cccnc2)cc1
  -0.1, -7.0, -4.3, 9.1, -0.3, -6.8
O=C(O)CC/C(=N/NC(=O)c1cn(-c2ccccc2)nc1-c1ccccc1)C(=O)O
  1.2, -8.0, -9.1, -0.5, /, 17.2
O=C(CCNC(=O)C1CCN(S(=O)(=O)c2ccccc2)CC1)NCc1cccnc1
  -0.1, -8.4, 11.9, /, 0.0, -4.3

Assay outcomes (PubChem)
